Compound activity as filed in PubChem.
Lassa entry inh: blocks Lassa virus binding to or entry into cells; Lassa virus pseudotype entry inhibition, cell reporter; control for the full effect not named in the record; Potency, µM (doses to about 37.9 µM), for the others: at the highest dose activity change, negative = inhibition, usual class: inhibitors; 300,000 compounds, 1.2% hits; AID 540256; active means well fitted inhibition curve with a large enough effect; inconclusive means small, poorly fitted or top-dose-only effect, or effect the other way; inactive means flat fitted curve, though single readings scatter; tested in HEK293 cells; also: % is scaled to controls: 0 for no effect and ±100 for the full control effect; nearly all actives have a fitted effect of over 50% in size; luciferase read-out
SARS PLpro yeast: blocks SARS-CoV papain-like protease in a yeast assay | S. cerevisiae expressing SARS-CoV PLpro, growth rescue; control for the full effect not named in the record | 330,000 compounds, 0.19% hits | AID 485353 | Potency, µM (titrated, usually from 32.9 µM), for inactives: at the top dose activity, positive = growth rescue; active means well fitted rising curve with a large enough effect; inconclusive means small, poorly fitted or top-dose-only effect; inactive means no such curve, though single readings can be large or run the other way; also: 0% is about no effect; nearly all actives have a fitted effect of over 55% in size; growth read by luminescence after 48 h
Cruzain inh noDet: inhibitors of Trypanosoma cruzi cruzain without detergent; 200,000 compounds, 2.3% hits; P25779; Potency, µM, without a hit: max response, negative = inhibition, usual class: inhibitors; purified cruzain, Z-FR-AMC fluorescence, no detergent;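 also: plate controls were enzyme without inhibitor for no effect and buffer without enzyme for full effect; nearly all actives have a fitted effect of over 40% in size; top concentration of the series not given in the record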
Target sequence (P25779 123-467 limits assumed): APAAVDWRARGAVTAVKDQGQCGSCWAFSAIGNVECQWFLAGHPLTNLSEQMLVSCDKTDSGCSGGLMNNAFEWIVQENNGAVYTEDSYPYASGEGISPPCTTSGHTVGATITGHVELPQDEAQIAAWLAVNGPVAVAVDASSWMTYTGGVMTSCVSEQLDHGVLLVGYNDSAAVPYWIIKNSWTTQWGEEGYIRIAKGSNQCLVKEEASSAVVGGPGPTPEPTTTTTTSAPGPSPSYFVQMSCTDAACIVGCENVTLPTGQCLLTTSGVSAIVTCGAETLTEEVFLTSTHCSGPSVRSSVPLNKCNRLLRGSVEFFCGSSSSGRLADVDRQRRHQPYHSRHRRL
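Purified cruzain at 1.5 nM, pre-incubated 15 min with compound at room temperature in 100 mM sodium acetate pH 5.5, 5 mM DTT, 0.00005% Triton X-100. Reaction started with 2 uM Z-FR-AMC; AMC fluorescence increase over 60 s gives rate.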
RE007 growth inh: less growth of the S. pombe RE007 Vpr strain; S. pombe RE007 Vpr strain, BacTiter-Glo ATP luminescence, 24 h; control for the full effect not named in the record; Potency, µM (highest dose often 92.2 µM), for the others: top-dose activity change, negative = less growth; 360,000 compounds, 0.21% hits; AID 651644; active = well fitted falling curve with a large enough effect; inconclusive = small, poorly fitted or top-dose-only effect; inactive = no such curve, though single readings can be large or run the other way;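 also: % is scaled to controls: 0 for no effect and ±100 for the full control effect; nearly all actives have a fitted effect of over 50% in size; the assay follows cell death caused by Vpr and the record does not say whether a fall means rescue or toxicity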
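Fission yeast strain RE007, carrying one chromosomally integrated HIV-1 vpr copy, was seeded at OD 0.01 in PMG+AL medium with 23 nL pinned compound. After 24 h at 30 °C and 99% humidity, viability was read by BacTiter-Glo luminescence.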
Cruzain Triton: inhibitors of Trypanosoma cruzi cruzain with detergent; 200,000 compounds, 0.43% hits; purified cruzain, Z-FR-AMC fluorescence, 0.01% Triton; Potency, µM, for the others: max response, negative = inhibition, usual class: inhibitors;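 also: plate controls were neutral wells for no effect and buffer without enzyme for full effect; nearly all actives have a fitted effect of over 40% in size; top concentration of the series not given in the record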
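Enzyme 1.5 nM, Z-FR-AMC 2 uM, NaOAc 100 mM pH 5.5, DTT 5 mM, Triton X-100 0.01%; 15 min RT compound preincubation; kinetic ex360/em450, 60 s delta.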
NS1 function inh: inhibitors of influenza NS1 protein function; Potency, µM (doses to about 46.1 µM), for inactives: at the highest dose activity, positive = more growth; 270,000 compounds, 0.4% hits; S. cerevisiae slowed by influenza A NS1, growth recovery by OD600; active means well fitted rising curve with a large enough effect; inconclusive means small, poorly fitted or top-dose-only effect; inactive means no such curve, though single readings can be large or run the other way; also: nearly all actives have a fitted effect of over 50% in size
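OD600 was taken as the measure of yeast growth restored by compound in an NS1-expressing S. cerevisiae strain. Cells had been washed out of glucose medium and diluted 1:100 into galactose -URA medium, pH 6.0.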
MARV entry inh: inhibitors of Marburg virus binding or cell entry; Marburg virus pseudotyped entry inhibition, cell reporter; control for the full effect not named in the record; about a third of the inactives were read at about 46 µM; Potency, µM (titrated, usually from 37.8 µM), without a hit: at the highest dose activity change, negative = inhibition, actives largely listed as inhibitors; 300,000 compounds, 1.8% hits; AID 540276; active = well fitted inhibition curve with a large enough effect; inconclusive = small, poorly fitted or top-dose-only effect, or effect the other way; inactive = flat fitted curve, though single readings scatter; tested in HEK293 cells; about a fifth of its hits are not listed in these tables; also: % is scaled to controls: 0 for no effect and ±100 for the full control effect; luciferase read-out
StopGo reporter: lowers the luciferase signal of an FMDV 2A StopGo reporter; AID 1159524; Potency, µM (series often up to 57.9 µM), without a hit: at the top dose signal change, negative = less light; human cells with a luciferase reporter of 2A StopGo recoding; control for the full effect not named in the record; 410,000 compounds, 1.2% hits; active = well fitted falling curve with a large enough effect; inconclusive = small, poorly fitted or top-dose-only effect; inactive = no such curve, though single readings can be large or run the other way; tested in HEK293T cells; also: % is scaled to controls: 0 for no effect and ±100 for the full control effect; nearly all actives have a fitted effect of over 45% in size; luciferase light after 4 h
* = called active by the depositor; ? = inconclusive; · = no result given; & = joins results of further samples; [ ] = dose if it differs, or a comment. Unless noted, calls follow the shape of the dose curve; as a rule, active = well fitted curve in the direction sought with a large enough effect; inconclusive = small, poorly fitted or top-dose-only effect, or another doubt; inactive = no such curve, though single readings can be large; an effect the other way counts as inactive or inconclusive. Potency is read from the fitted curve at half-maximal effect.

SMILES | Lassa entry inh | SARS PLpro yeast | Cruzain inh noDet | RE007 growth inh | Cruzain Triton | NS1 function inh | MARV entry inh | StopGo reporter
COc1ccc(C2=NN(CC(=O)NCCc3ccccc3)C(=O)CC2)cc1 | 0%[46.1 µM] | · | -4% | · | -4.3% | · | · | 5%
Cc1cc(Sc2nnc(/N=C/N(C)C)s2)c2ccccc2n1 | · | -3% | · | 7% | · | -40% | · | 14µM*
Cc1cc2occ(CC(=O)Nc3nccs3)c2cc1C(C)C | -9% | 0% | 1% | 20% | -5.3% | 0% | ? | 0%
COC(=O)c1ccc(C23CC4(C2)[C@H](CN(C)[C@@H]4c2ccccc2)C3c2ccccc2)cc1 (stereo partly specified) | · | 2% | 1% | -3% | -4.2% | 2% | · | -20%
COc1ccc(OCC(=O)N/N=C2\CCCCc3ccccc32)cc1 | ? | 0% | · | -6% | · | -33% | ? | 0%
Cc1[nH]nc(N=CC2=C(O)CC(c3ccco3)CC2=O)c1-c1ccccc1 (stereo unspecified) | -11%[46.1 µM] | 14% | ? | -3%&12% | -9.4% | -63% | ? | -28%&-1%
O=C(CSc1nccn1-c1cccc(Cl)c1)NC1CCCC1 | -2% | -3% | 18% | 21% | 0.8% | -11% | ? | -22%
O=C1/C(=C\c2ccccc2)CN(C(=O)CCN2CCCCC2)C/C1=C/c1ccccc1 | ? | · | · | 17% | · | · | 1µM* | 7.9µM*
COc1ccccc1CN1CCNC(=O)C1CC(=O)N(C)Cc1ccon1 (stereo unspecified) | · | 0% | · | 13% | · | -1% | · | -15%
CCc1cccc(CC)c1-n1c(SCn2nnc3ccccc3c2=O)nnc1-c1cccnc1 | ? | -27% | 3% | 4% | -7.0% | 1% | ? | -13%
COc1ccc(C(=O)Oc2ccc(C(c3c(C)[nH][nH]c3=O)c3c(C)[nH][nH]c3=O)cc2OC)cc1 | 9%[46.1 µM] | · | 10% | · | -2.7% | · | 4%[46.1 µM] | -3%
Cc1ccc(S(=O)(=O)N2CCOCC2)cc1C(=O)N1CCC(Cc2ccccc2)CC1 | ? | 0% | · | 6% | · | 6% | -9%[46.1 µM] | 7%
Cc1ccc(C)c(S(=O)(=O)N/N=C/c2ccc(F)cc2)c1 | · | -1% | · | -4% | · | -5% | · | 55%[activator]
COCc1c(C(=O)N/N=C/c2c[nH]c3ccccc23)nnn1-c1nonc1N | · | 1% | · | 2% | · | -19% | 1%[46.1 µM] | 7%
Cc1ccc(C)c(N(C(=O)c2ccco2)C(C(=O)NC2CCCC2)c2ccco2)c1 (stereo unspecified) | ? | 0% | · | -6% | · | 7% | ? | -18%
CCNC(=O)[C@@H]1O[C@@H](n2cnc3c(N)ncnc32)[C@H](O)[C@H]1O | · | · | 4% | · | 4.3% | · | 19% | -25%
COc1ccc(/C=N/NC2=NS(=O)(=O)c3ccccc32)cc1OC(C)=O | 3% | -3% | · | 3% | · | -1% | 12% | 7%
O=S(=O)(c1ccccc1)c1nnn2c1nc(NC1CCCCCC1)c1sccc12 | 9%[46.1 µM] | · | -7% | · | -0.7% | · | · | -25%
CC(=O)c1cccc(NC(=O)N2CCC(C(=O)c3ccc(F)cc3)CC2)c1 | -18% | 5% | · | 9% | · | -20% | -30%[46.1 µM] | ?
C[N+]1(CC(=O)OCCCc2ccccc2)CCOCC1 | 6% | 9% | -9% | 4% | 7.3% | 1% | ? | 3%
COc1ccc(C(=O)CCS(=O)(=O)c2ccc(C)cc2)cc1OC | ? | -12% | · | ? | · | -45% | ? | ?
Cc1cc(=O)oc2cc(OCC(=O)N3CCCC(C)C3)ccc12 (stereo unspecified) | 0% | 1% | 5% | 11% | -6.8% | 1% | 17% | -6%
COC(=O)c1cc(S(=O)(=O)NCCc2ccc(SC)cc2)c[nH]1 | -26%[46.1 µM] | 6% | · | -3% | · | 8% | -28%[46.1 µM] | -3%
Cc1ccc(C)c(NC(=O)CCC(=O)N/N=C2/CC(=O)CC(C)(C)C2)c1 | 0%[46.1 µM] | 0% | · | -13% | · | 8% | -15% | -14%
NS(=O)(=O)c1cccnc1Nc1ccc(Cl)c(Cl)c1 | 5% | -8% | 7% | -12% | -12% | -4% | 9% | -16%
N/C(=N\c1nc2c(c(=O)[nH]1)CCC2)Nc1ccccc1 | -15% | 6% | -14% | -5% | -1.1% | 21% | -1% | -1%
CC1CCN(c2ccc3nnc(CCC(=O)NCCCOC(C)C)n3n2)CC1 | -1%[46.1 µM] | 0% | · | 2% | · | 9% | 9%[46.1 µM] | -7%
O=C(O)c1sccc1Oc1ccc(NS(=O)(=O)c2cccc(F)c2)cc1 | 6%[46.1 µM] | 1% | · | -5% | · | -2% | 0%[46.1 µM] | 1%
COC(=O)C1CCCN1C(C(=O)NC1CCCCC1)c1ccc(Cl)cc1 (stereo unspecified) | -4% | 3% | 0% | 6% | 3.8% | -16% | -7% | 10%
Cc1ccc(C)c2c(SC(C)C(=O)NCc3ccco3)nc(-c3ccccc3)nc12 (stereo unspecified) | -12% | 0% | 4µM* | -13% | -7.6% | 3% | 0% | ?
O=C(N/N=C/c1ccco1)c1cnccn1 | -1% | -5% | -5% | -8% | -4.6% | 3% | -3% | ·
Cc1cc(S(=O)(=O)C(CNC(=O)c2ccc(F)c(F)c2)c2cccs2)ccc1F (stereo unspecified) | 21%[46.1 µM] | · | -17% | · | -3.6% | · | · | 22%
CSc1nc(O)c(C(c2ccc(O)cc2)c2c(O)nc(SC)[nH]c2=O)c(=O)[nH]1 | · | 0% | · | 12% | · | -5% | · | -6%
CN(C)CCNC(=O)c1sc2cccc(F)c2c1Cl | ? | -1% | · | -5% | · | 4% | ? | -11%
O=C(NC1CCCCC1)c1ccc(N2CCOCC2)c([N+](=O)[O-])c1 | · | -1% | · | 2% | · | -4% | · | 3%
N/C(=N\c1nc2c(c(=O)[nH]1)CCCC2)Nc1ccccc1Sc1ccccc1 | -4% | -2% | 3% | 2% | -3.6% | 5% | -3% | -1%
COc1ccc(/C=N/c2nc3ccccc3n2C)cc1OC | 11% | 5% | -3% | 3% | -7.2% | -8% | 0% | ·
CCOc1ccc(OCC(=O)Nc2c3c(nn2C(C)(C)C)CS(=O)(=O)C3)cc1 | 3% | -2% | · | 5% | · | 5% | -1% | -13%
O=C1CCC(C(=O)Nc2cccc(S(=O)(=O)Nc3ccccc3F)c2)=NN1 | -26%[46.1 µM] | 0% | · | -8% | · | · | ? | 3%
N#Cc1nc(-c2ccccc2Cl)oc1N1CCOCC1 | 3% | -6% | 14% | ? | 9.9% | 2% | -4% | ·
Cc1ccc(NC(=S)Nc2nc(CC(=O)Nc3ccccc3)cs2)cc1 | 4% | 5% | ? | -14% | -4.0% | 14% | -22% | 15%
COc1ccc(/C=C(\NC(=O)c2cccs2)C(=O)Nc2ccccc2C)cc1OC | -16% | 9% | ? | 2% | -8.2% | -3% | 20% | -3%
Cc1ccccc1CNCCSc1nnnn1-c1ccccc1 | 27%[46.1 µM] | · | 3% | · | 3.1% | · | 28%[46.1 µM] | -10%
CC1CC2=C(NC(=S)NC2c2ccccc2F)/C(=C/c2ccccc2F)C1 (stereo unspecified) | -16%[46.1 µM] | 13% | · | 5% | · | 10% | ? | -13%
CN(C)c1nc(Oc2ccc(/C=N/O)cc2)nc(N(C)C)n1 | -10% | 5% | 0% | -22% | -1.3% | -57% | 3% | -23%
O=C(CN1C(=O)c2ccccc2C1=O)NCc1ccc(F)cc1 | -4% | -2% | · | 8% | · | 20% | 2% | 18%
C=CCNc1nc(N)c(C(=C(C#N)C#N)c2ccccc2)s1 | -17% | 1% | -8% | 0% | -4.4% | 19% | -24% | ?
Cc1cc(OCc2nc(-c3ccncc3)no2)cc(C)c1Cl | 2%[46.1 µM] | -1% | · | 3% | · | -5% | ? | ?
COc1ccc(C)cc1NC(=O)NCCn1nnc2cc(S(=O)(=O)N(C)C)ccc21 | -3%[46.1 µM] | · | -1% | · | 1.7% | · | · | -10%
C/C(CC(=O)NCCc1ccccc1)=N\NC(=O)COc1ccc(Br)cc1 | ? | -5% | · | -9% | · | -1% | ? | -23%
CC1=C(C(=O)OC2CCCCC2)C(c2ccco2)n2ncnc2N1 (stereo unspecified) | · | -5% | 1% | -1% | -0.8% | -4% | · | ?
CCOC(=O)CSc1ccc(-c2nc3cc(C)c(C)cc3[nH]2)cn1 | ? | 4% | 2% | -29% | -7.0% | ? | ? | -5%
Cc1ccc(C)c(N(C(=O)Cn2nnc(-c3cccs3)n2)C(C(=O)NC2CC2)c2ccc(C)o2)c1 (stereo unspecified) | ? | -9% | 3% | 10% | -11% | -4% | -15% | ·
Cn1ncc(Br)c1C(=O)NC(=S)N1CCN(c2ccccn2)CC1 | 7% | 15% | -9% | 2% | -6.2% | 21% | ? | -16%
CC(C)c1ccc(N2CCN(C(=O)c3ccccc3NC(=O)/C=C(\C(=O)O)c3ccccc3)CC2)cc1 | · | -51% | ? | · | -3.4% | -94% | -4% | ·
Cn1c(-c2ccc(C(C)(C)C)cc2)n[nH]c1=S | ? | -14% | -1% | -22% | 5.9% | -2% | -21% | 29%
COC(=O)N/N=C\c1cc(Br)ccc1OCc1ccccc1 | ? | -34% | -8% | 21% | -5.6% | 10% | -7% | -27%
Cn1c(=O)oc2cc(S(=O)(=O)Nc3cccc(C(=O)O)c3)ccc21 | -7% | 2% | -8% | -14% | 2.4% | -9% | ? | -11%
CN1C(=O)C(C2c3ccccc3C(=O)N2Cc2ccccc2)C(=O)N(C)C1=O (stereo unspecified) | 0% | 1% | -5% | -5% | 3.3% | 0% | 14% | -19%
O=C(O)CCCC(=O)N1CCN(c2nc(-c3ccccc3Cl)c3cc(Br)ccc3n2)CC1 | · | -13% | · | -14% | · | -2% | · | -18%
O=C(COc1coc(CN2CCN(c3ccccc3F)CC2)cc1=O)NCC1CCCO1 (stereo unspecified) | 17% | -1% | · | 5% | · | · | -9% | -1%
Cc1cccc(OCC(=O)N/N=C/c2sc(=O)n(Cc3cccc(C(=O)O)c3)c2Cl)c1 | -3% | 0% | · | -10% | · | 13% | 0%[46.1 µM] | -17%
O=S(=O)(c1ccccc1)N1CCCC1c1cccs1 (stereo unspecified) | 0% | -1% | · | 7% | · | -38% | 1%[46.1 µM] | -10%
